Bioassay records as filed in PubChem BioAssay.
CtBP-E1A blk: inhibitors of CtBP/E1A interaction; AlphaScreen GST-E1A/His-CtBP binding, 1536-well; hits give low values; control for the full effect not named in the record; activity change, % (concentration not given with the values); 340,000 compounds, 0.49% hits; in the data active means activity change below about -65%; inconclusive means about -30% to -65%; inactive means above about -30%; note: % is set by controls: 0 for no effect and ±100 for the full control effect
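Steps: dispense buffer (Tris pH 8.0, NaCl 300 mM, TCEP 1 mM, BSA, Tween 20); add 5X protein mix (GST-E1A, His-CtBP, 125 nM each); pin 23 nL compound; 2 h at 37 °C, dark; add 5X beads (50 ug/mL); 1 h; read.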
Six1-Eya2 blk: Six1/Eya2 interaction inhibition; activity change, % (no concentration beside the values); AlphaScreen GST-Six1/His-Eya2 binding, biochemical; hits give low values; control for the full effect not named in the record; 360,000 compounds, 0.56% hits; Q15475+O00167; in the data active = activity change below about -65%; inconclusive = about -30% to -65%; inactive = above about -30%; note: % is set by controls: 0 for no effect and ±100 for the full control effect
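AlphaScreen luminescence read after one hour at 37 °C in darkness. Pin-transferred compounds met GST-Six1 and His-Eya2 protein (5X stock 250 nM/500 nM) plus glutathione donor and Ni-chelate acceptor beads (5X, 50 ug/mL).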
PINK1 expr mod: changes PINK1 expression; PINK1 immunofluorescence, high-content cytometry, 24 h; Potency, µM (doses to about 76.6 µM), for inactives: at the top dose activation (PINK1 increase), most hits filed as activators; 410,000 compounds, 0.2% hits; active = well fitted activation curve with a large enough effect; inconclusive = small, poorly fitted or top-dose-only effect; inactive = flat fitted curve, though single readings scatter; cell line not stated here;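 note: potency is the fitted concentration of half-maximal effect; % of control where 0% means no effect; nearly all actives have a fitted effect of over 65% in size; a mitochondrial uncoupler was the plate control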
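PINK1 protein, normally rapidly degraded, was detected by immunofluorescence after 24 hour compound treatment of a stable cell line. Titration data (5 concentrations) came from laser-scanning cytometry, with CCCP-treated wells as controls.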
D2 ag: agonists of human D2 dopamine receptor (beta-arrestin). DiscoveRx PathHunter D2 beta-arrestin, luminescence, 90 min; 100% = 57 uM dopamine signal. activation, % (concentration not given with the values). 360,000 compounds, 0.084% hits. AID 624465; in the data active = activation above about 40%; inconclusive = about 15% to 40%; inactive = below about 15%; note: the text of the record calls up to 30% inactive
Target sequence (P14416 whole entry, looked up): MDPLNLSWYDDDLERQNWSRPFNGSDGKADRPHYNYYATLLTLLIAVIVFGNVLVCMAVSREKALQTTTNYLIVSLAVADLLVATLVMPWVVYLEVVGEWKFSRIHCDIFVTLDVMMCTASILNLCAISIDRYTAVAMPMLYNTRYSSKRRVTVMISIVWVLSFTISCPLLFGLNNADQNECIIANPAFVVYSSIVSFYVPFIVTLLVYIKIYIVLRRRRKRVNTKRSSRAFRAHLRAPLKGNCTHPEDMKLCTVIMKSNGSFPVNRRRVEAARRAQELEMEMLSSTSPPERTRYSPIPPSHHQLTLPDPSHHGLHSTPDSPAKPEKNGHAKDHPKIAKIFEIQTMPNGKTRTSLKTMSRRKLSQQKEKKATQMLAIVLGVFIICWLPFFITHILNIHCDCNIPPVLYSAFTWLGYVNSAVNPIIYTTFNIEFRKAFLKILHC
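DiscoveRx PathHunter D2 beta-arrestin cells (2,100/well) attached overnight, then compound-stimulated 90 min at 37 C in HBSS/10 mM HEPES/0.1% Tween-20 buffer; beta-galactosidase complementation read by luminescence after 1 h at ambient temperature. Dopamine 57 uM final (EC100) as control.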
TRPML1 ag: agonists of human TRPML1 channel; Q9GZU1; TRPML1-expressing cells, Ca2+ dye fluorescence, FDSS; host cell line not named in the record; reference of the full effect not given here; activation, % (test concentration not listed); 410,000 compounds, 0.12% hits; in the data active = activation above about 50%; inconclusive = about 30% to 50%; inactive = below about 30%; note: 0% is about no effect; the text of the record puts the active cut at 80%
Target sequence (Q9GZU1 whole entry, looked up): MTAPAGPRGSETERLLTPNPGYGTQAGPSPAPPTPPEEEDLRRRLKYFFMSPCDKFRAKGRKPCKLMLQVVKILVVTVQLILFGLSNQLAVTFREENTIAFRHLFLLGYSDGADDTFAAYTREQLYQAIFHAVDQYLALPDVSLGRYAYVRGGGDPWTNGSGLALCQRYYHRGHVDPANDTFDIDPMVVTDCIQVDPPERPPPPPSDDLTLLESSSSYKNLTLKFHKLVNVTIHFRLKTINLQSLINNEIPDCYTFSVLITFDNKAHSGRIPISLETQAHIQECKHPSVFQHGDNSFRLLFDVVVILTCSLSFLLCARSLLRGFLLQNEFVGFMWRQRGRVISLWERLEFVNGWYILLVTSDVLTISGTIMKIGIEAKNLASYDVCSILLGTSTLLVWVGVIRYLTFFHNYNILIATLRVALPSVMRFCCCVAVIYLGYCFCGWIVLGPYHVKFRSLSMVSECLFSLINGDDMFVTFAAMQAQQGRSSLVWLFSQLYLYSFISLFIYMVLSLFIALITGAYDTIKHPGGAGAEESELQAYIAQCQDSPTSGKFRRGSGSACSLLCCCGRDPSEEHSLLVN
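Kinetic FDSS Ca2+ read in Tet-induced TRPML1-DL cells (ABD Ca8 dye plus quencher, 45-90 min RT loading): baseline, then compound, then 110 s agonist window; EC80 agonist 54-4 at 4uM final added afterwards for a 110 s antagonist window.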
D2 potentiator: positive allosteric modulators of human D2 dopamine receptor. AID 624464. potentiation, % (test concentration not listed). DiscoveRx D2 beta-arrestin cells, luminescence, 90 min; 100% = 57 uM dopamine signal. 360,000 compounds, 0.23% hits; active = potentiation of 50% or more; inconclusive = 30% to 50%; inactive = 30% or less;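 note: compound concentration not given in the record; tested on top of an EC20 dose of dopamine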
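D2 cells co-treated with compound plus 50 nM dopamine (EC20) for 90 min at 37 deg C to detect potentiation. Beta-arrestin recruitment was read as enzyme-fragment luminescence after 1 h at ambient temperature. Full response was set by 57 uM dopamine.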
* marks the source's active call; other numbers are inactive results; ? = inconclusive; . = no result given; & = joins results of further samples; [ ] = another dose, or the depositor's remark.

SMILES	CtBP-E1A blk	Six1-Eya2 blk	PINK1 expr mod	D2 ag	TRPML1 ag	D2 potentiator
Cc1csc2c(N3CCN(S(=O)(=O)c4ccc(Cl)cc4)CC3)ncnc12	-23.9	-3.3	5.0%	-1.6	0.1	0.4
O=C(/C=C/c1ccco1)NC(=S)Nc1ccccc1N1CCOCC1	-0.3	-11.7	4.1%	-3.7	-0.2	-7.9
CN(CC(=O)NCCc1ccc(S(N)(=O)=O)cc1)Cc1c(F)cccc1Cl	-7.9	1.4	0.0%	1.0	-0.3	4.6
CCCS(=O)(=O)N1CCN(CCN2C(=O)c3cccc4cccc(c34)C2=O)CC1	0.0	-18.9	-0.6%	3.3	-0.2	-2.3
CCN(c1ccccc1)S(=O)(=O)c1ccc(Cl)c(NC(=O)CSc2nc(N)cc(=O)[nH]2)c1	7.9	13.8	4.4%	-2.2	-0.4	-14.3
CN1/C(=C\C(=O)CSc2cccc[n+]2[O-])C(C)(C)c2ccccc21	3.2	1.9	-0.6%	0.6	0.4	-1.7
CCn1c(=NC(=O)CS(=O)(=O)c2ccc(C)cc2)sc2cccc(OC)c21	1.6	-3.2	-0.1%	6.9	2.0	0.1
CCOC(=O)C1CCN(C(=O)COC(=O)CNS(=O)(=O)c2ccc(SC)c([N+](=O)[O-])c2)CC1	1.4	-7.0	20.0%	-3.9	0.8	3.5
N#C/C(=C\c1ccc(N2CCOCC2)o1)c1ccccc1	11.4	-7.5	.	0.2	4.8	-11.3
Cc1cc(C)n2nc(SCC(=O)N3CCCCC3C)nc2n1 (stereo not given)	4.8	4.3	1.0%	-1.4	0.0	-4.5
O=C(COC(=O)/C=C/c1ccc(F)cc1)NC1CCCCCC1	-10.1	-4.9	1.1%	1.7	0.4	-4.5
CN1CCN(Cc2nc(Cc3ccccc3)no2)CC1c1ccccc1 (stereo not given)	0.0	1.9	-0.5%	-3.3	0.1	-18.4
Cc1cc(NS(=O)(=O)c2ccc(NC(=O)c3cc4ccccc4o3)cc2)nc(C)n1	-6.5	-19.4	1.3%	-1.6	-0.5	-17.6
CC(C)(C)NC(=O)c1cc(NC(=O)c2cccs2)cc(NC(=O)c2cccs2)c1	-10.7	-7.5	4.8%	-2.9	2.0	0.7
Cc1cccc(C)c1NC(=S)N1CCCN(Cc2ccc(F)cc2)C1	1.1	6.0	2.1%	-1.5	-0.9	-8.3
COc1ccc(S(=O)(=O)NC(=O)C2(C)CCN2C(=O)CCC2CCCC2)cc1OC (stereo not given)	1.1	2.2	0.2%	-6.2	-0.3	-0.6
Cc1cc(Oc2ccc(-c3ccccc3)cc2)n2ncnc2n1	2.2	1.4	-2.1%	-1.7	0.8	-16.8
COc1ccc2sc(-c3ccccc3OC)c(-c3ccc(SC)cc3)c2c1	-4.0	-12.4	2.6%	.	-0.7	.
O=C(NCCO)c1c(O)c2cccc3c2n(c1=O)CC3	-1.2	-3.9	-0.5%	-2.0	-0.7	-21.7
COc1ccc([N+](=O)[O-])cc1N(CC(=O)NC1CCCC1)S(C)(=O)=O	.	8.6	0.2%	-2.4	-0.1	-5.1
CCNc1nc(NC(C)C)nc(OCCNS(=O)(=O)c2cc(C)ccc2C)n1	-9.8	-1.9	-0.2%	-3.2	1.8	-7.3
COc1ccc(C(=O)c2cc([N+](=O)[O-])ccc2N2CCCC2)cc1	5.7	-1.0	0.2%	-1.7	1.4	-23.0
O=C1CN(CC(=O)NC(=O)NCc2ccccc2)CCN1	-0.6	9.9	-1.7%	-0.1	0.3	-7.2
COc1ccccc1N(CC(O)Cn1ccnc1C)S(=O)(=O)c1ccc(C)cc1 (stereo not given)	-13.0	-0.1	-1.0%	-2.8	0.4	-7.2
CCN(Cc1ccncc1)C(=O)c1cc(COc2ccc(F)cc2Cl)on1	-0.4	2.6	-1.1%	0.5	0.0	-5.9
SMILES	CtBP-E1A blk	Six1-Eya2 blk	PINK1 expr mod	D2 ag	TRPML1 ag	D2 potentiator
CCOc1ncccc1C(=O)Nc1nc(SC)ns1	-20.3	-4.7	0.6%	-2.5	0.4	-21.0
Cc1cccc(-c2nc3c(c(=O)c4ccccc4n3C)c(=O)n2-c2ccccc2)c1	5.7	-6.8	1.2%	-1.7	-0.4	-8.0
O=C(CN1CCN(Cc2ccccc2)CC1)NC(=O)NC1CCCCC1	5.1	-2.3	-1.1%	-4.1	-1.0	-19.7
COC(=O)N/N=C/c1ccc([N+](=O)[O-])o1	-22.8	-3.3	-3.1%	1.4	7.1	29.0
Cc1cc2nc(-c3ccco3)cc(C(F)(F)F)n2n1	6.7	-2.3	3.4%	-2.3	-0.7	-2.8
CCn1c(CCCc2ccc(OC)c(C)c2)n[nH]c1=S	0.0	2.5	-0.6%	-1.1	2.1	0.7
OC(c1ccc(F)c(F)c1)c1nc(-c2cccc(F)c2)cs1 (stereo not given)	12.8	6.8	8.7%	2.7	0.6	-2.9
CC(C)CC1Nc2ncnc(N3CCOCC3)c2N(Cc2ccc(Cl)cc2)C1=O (stereo not given)	3.6&0.0	-7.8&0.0	1.0%&5.7%	-2.9&3.6	-0.2&0.4	-7.0&1.5
COC(=O)/C=C1\N/C(=N\c2nc(C)cc(C)n2)N(c2ccc(C)cc2)C1=O	.	2.8	-0.9%	-3.3	0.7	-10.6
OC(c1ccc(F)c(F)c1)c1nc(-c2ccncc2)cs1 (stereo not given)	1.9	4.4	5.1%	2.1	0.2	0.5
O=C(O)CCc1ccc(-c2ccc(Cl)cc2)n1Cc1ccco1	7.8	-11.8	.	-2.1	1.2	4.0
COc1ccc(NC(=O)Cn2nc(C(=O)O)c3ccccc3c2=O)cc1OC	-17.9	-9.4	-0.4%	-2.1	3.3	-4.3
CSc1nc(SCC(=O)NCC2CCCO2)c2c3c(sc2n1)CN(C)CC3 (stereo not given)	-25.0	-9.3	0.4%	-7.4	-0.6	-9.3
CCCCCCNC(=O)Cc1c(O)c2ccccc2[nH]c1=O	-0.7	2.3	-1.6%	-3.5	-0.7	-5.0
CC(=O)Nc1ccc(N/C=C/C(=O)c2ccc(C)cc2)cc1	-2.9	6.4	29.1%	-0.7	1.0	-2.9
Cc1ccc(S(=O)(=O)CC(=O)Nc2nc3ccc(S(N)(=O)=O)cc3s2)cc1	1.3	3.6	-0.4%	-1.9	-0.9	-11.8
COCCCNC(=O)CC(=O)N/N=C\c1ccc(SC)cc1	12.1	-0.1	0.3%	-1.1	0.1	-2.4
C=CCN(c1ccccc1)S(=O)(=O)c1cccc(C(=O)NCC(c2ccc(OC)cc2)N2CCCCC2)c1 (stereo not given)	-0.8	-10.5	27.7%	-5.1	0.5	-32.1
CC(C)c1ccc(NC(=O)CSc2n[nH]c(=O)n2-c2ccc3c(c2)OCCO3)cc1	-11.1	-12.9	2.1%	-3.6	-0.1	-8.2
CN(C)S(=O)(=O)N1CCC(Oc2ccc(C(=O)N3C[C@H]4CC[C@H]3C4)cc2)CC1	3.8	-0.3	-1.5%	1.7	0.7	-12.4
CN1/C(=C\C(=O)c2cccnc2Cl)C(C)(C)c2ccccc21	0.5	6.8	0.5%	-3.0	0.3	-6.7
CCC(C)NC(=O)CCSc1ccc(C)cc1 (stereo not given)	2.8	0.3	0.2%	-3.2	-0.5	-5.4
CC(C)c1cccc(C(C)C)c1NC(=O)COC(=O)C1=COCCO1	-9.5	-14.0	0.3%	-6.3	-0.1	-1.9
O=C(CCn1cncn1)N1CCCC(N2CCN(c3ccc(F)cc3)CC2)C1 (stereo not given)	4.7	-1.3	0.4%	-0.4	-0.1	-16.9
COc1ccc(COC(=O)c2cccc(S(=O)(=O)N3CCN(C(C)=O)CC3)c2)cc1F	-5.4	-2.1	-4.3%	1.8	0.0	9.8

2 compounds drawn at random from the list so far:
SMILES	CtBP-E1A blk	Six1-Eya2 blk	PINK1 expr mod	D2 ag	TRPML1 ag	D2 potentiator
Cc1cccc(-c2nc3c(c(=O)c4ccccc4n3C)c(=O)n2-c2ccccc2)c1	5.7	-6.8	1.2%	-1.7	-0.4	-8.0
COC(=O)/C=C1\N/C(=N\c2nc(C)cc(C)n2)N(c2ccc(C)cc2)C1=O	.	2.8	-0.9%	-3.3	0.7	-10.6

New compounds follow.
SMILES	CtBP-E1A blk	Six1-Eya2 blk	PINK1 expr mod	D2 ag	TRPML1 ag	D2 potentiator
Cc1cc(C)c(S(=O)(=O)N2CCCOC2CNC(=O)C(=O)NCCc2c[nH]c3ccccc23)c(C)c1 (stereo not given)	-9.0	-16.2	-1.3%	1.8	0.2	-0.5
O=C(CCNS(=O)(=O)c1ccccc1)OCc1nnc(-c2ccccc2)o1	0.0	-10.6	-0.5%	-3.1	-0.5	10.2
O=C(CNC(=O)c1cccc(S(=O)(=O)N2CCc3ccccc32)c1)Nc1ccc(F)c(F)c1F	9.0	-4.7	-1.1%	-3.3	-0.1	-13.5
O=Cc1c(Cl)nc2ccccn12	3.1	4.4	-1.2%	-2.1	0.7	-4.1
Cc1onc(-c2ccccc2)c1C(=O)N1CCOC12CCN(c1cccc(F)n1)CC2	-2.2	-1.2	-0.8%	-0.3	1.7	-5.9
COc1ccc(/C(C)=N/NC(=O)CNC(=O)c2ccco2)cc1	-25.2	-1.1	-1.7%	-4.0	-0.3	-7.0
COc1cc(C(=O)N/N=C/c2ccc(OC(=O)c3ccccc3)c(OC)c2)ccc1O	-16.7	0.6	0.5%	-1.3	1.1	-16.9
CC1(C)CC(=O)C2=C(C1)N(c1ccc(F)cc1)C(=O)C2(O)C(F)(F)F (stereo not given)	7.0	0.2	0.1%	-5.2	-0.4	-19.8
CCOc1cccc2c1OC1(C)CC2NC(=O)N1c1cccc(Cl)c1 (stereo not given)	-4.2	-1.0	1.7%[38.3 µM]	-0.8	-0.7	-3.9
O=C(CSCc1cccc(Cl)c1)Nc1ccccc1-c1ccccc1	20.1	18.6	6.0%	3.6	0.9	20.5
COC(=O)[C@H](Cc1ccccc1)N(Cc1ccccc1)S(=O)(=O)N(Cc1ccccc1)[C@@H](Cc1ccccc1)C(=O)OC	-1.9	-2.5	-0.2%	-4.6	3.0	-5.5
Cc1cc(C)c2c(CC(=O)NCc3ccco3)coc2c1	-4.1	-3.4	7.4%[38.3 µM]	-2.8	-0.1	-7.8
CCN(C(=O)c1cc2cccc(OC)c2oc1=O)C1CCCCC1	-3.4	5.5	-0.3%	-0.7	-0.6	2.2
COc1cccc(CN2CCN(C3CSCCSC3)CC2CCO)c1 (stereo not given)	-0.9	-2.7	2.0%	-1.9	0.0	0.9
O=C(COC(=O)CCSc1ccccc1)Nc1ccccc1Br	.	27.8	-0.1%	-2.9	0.0	3.6
CCOc1ccc(C2C(C#N)=C(N)Oc3cc(C)n(Cc4ccco4)c(=O)c32)cc1OC (stereo not given)	-1.8	0.1	1.4%	7.1	0.2	-11.1
CCN(C(=O)COC(=O)Cc1coc2cc(C)ccc12)c1c(N)n(Cc2ccccc2)c(=O)[nH]c1=O	-10.7	2.7	-2.5%	5.6	0.4	3.7
O=C(Nc1ccccn1)c1nc(-c2ccccc2)n(-c2ccccc2)n1	-0.6	8.6	0.7%	-2.3	1.3	2.0
Cc1cc(=O)oc2cc(OCC(=O)NCc3ccccn3)ccc12	-8.2	-3.4	-2.6%	-5.0	0.2	-4.1
Cc1c(NC(=O)c2cc3c(s2)-c2ccccc2OC3)cccc1[N+](=O)[O-]	?	-23.1	-0.3%	1.0	-0.8	-21.2
